Source: PubChem (National Center for Advancing Translational Sciences (NCATS))
Lassa entry inh – Lassa virus entry inhibition | Potency, µM (highest dose often 37.9 µM), for the others: at the highest dose activity change, negative = inhibition, most hits filed as inhibitors | hit rate 1.2% among 300,000 | AID 540256 | Lassa virus pseudotype entry inhibition, cell reporter; control for the full effect not named in the record; active means well fitted inhibition curve with a large enough effect; inconclusive means small, poorly fitted or top-dose-only effect, or effect the other way; inactive means flat fitted curve, though single readings scatter; tested in HEK293 cells; further: on the % scale 0 is the no-effect control and ±100 the full control effect; nearly all actives have a fitted effect of over 50% in size; luciferase read-out
NS1 inh – influenza NS1 inhibition. hit rate 0.4% among 270,000. Potency, µM (highest dose often 46.1 µM), for inactives: at the top dose activity, positive = more growth. AID 2326. S. cerevisiae slowed by influenza A NS1, growth recovery by OD600; further: actives are rising curves; nearly all actives have a fitted effect of over 50% in size
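S. cerevisiae expressing influenza A NS1, grown in glucose, washed, then diluted 1:100 into pH 6.0 -URA galactose medium with 23 nl compound. Growth recovery read as OD600; NS1-free strain serves as control.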
Marburg entry inh – blocks Marburg virus binding to or entry into cells. Marburg virus pseudotyped entry inhibition, cell reporter; control for the full effect not named in the record; about a third of the inactives were read at about 46 µM. Potency, µM (highest dose often 37.8 µM), inactives show top-dose activity change, negative = inhibition, most hits filed as inhibitors. hit rate 1.8% among 300,000; active = well fitted inhibition curve with a large enough effect; inconclusive = small, poorly fitted or top-dose-only effect, or effect the other way; inactive = flat fitted curve, though single readings scatter; tested in HEK293 cells; about a fifth of its hits are not listed in these tables; further: on the % scale 0 is the no-effect control and ±100 the full control effect; luciferase read-out
SARS PLP yeast – blocks SARS-CoV papain-like protease in a yeast assay | S. cerevisiae expressing SARS-CoV PLpro, growth rescue; control for the full effect not named in the record | Potency, µM (top dose mostly 32.9 µM), without a hit: at the highest dose activity, positive = growth rescue | AID 485353 | hit rate 0.19% among 330,000; further: 0% is about no effect; nearly all actives have a fitted effect of over 55% in size; growth read by luminescence after 48 h
Cruzain inh noDet – inhibitors of Trypanosoma cruzi cruzain without detergent; hit rate 2.3% among 200,000; purified cruzain, Z-FR-AMC fluorescence, no detergent; P25779; Potency, µM, for inactives: max response, negative = inhibition, usual class: inhibitors; active means well fitted curve in the direction sought with a large enough effect; inconclusive means small, poorly fitted or top-dose-only effect, or another doubt; inactive means no such curve, though single readings can be large; an effect the other way counts as inactive or inconclusive;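 further: plate controls were enzyme without inhibitor for no effect and buffer without enzyme for full effect; nearly all actives have a fitted effect of over 40% in size; top concentration of the series not given in the record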
Target sequence (P25779 123-467 limits assumed): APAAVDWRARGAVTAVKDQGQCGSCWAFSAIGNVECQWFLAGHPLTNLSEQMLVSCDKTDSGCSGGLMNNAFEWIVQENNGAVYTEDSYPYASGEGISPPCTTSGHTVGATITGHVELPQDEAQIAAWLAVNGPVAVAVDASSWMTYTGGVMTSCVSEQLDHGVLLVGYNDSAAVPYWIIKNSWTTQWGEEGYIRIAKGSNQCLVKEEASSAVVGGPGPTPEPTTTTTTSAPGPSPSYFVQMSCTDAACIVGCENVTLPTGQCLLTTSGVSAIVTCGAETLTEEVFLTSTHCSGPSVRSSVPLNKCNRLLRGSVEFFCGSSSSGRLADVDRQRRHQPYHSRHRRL
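Purified cruzain at 1.5 nM, pre-incubated 15 min with compound at room temperature in 100 mM sodium acetate pH 5.5, 5 mM DTT, 0.00005% Triton X-100. Reaction started with 2 uM Z-FR-AMC; AMC fluorescence increase over 60 s gives rate.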
2A StopGo – lowers the luciferase signal of an FMDV 2A StopGo reporter; Potency, µM (highest dose often 57.9 µM), for inactives: at the highest dose signal change, negative = less light; hit rate 1.2% among 410,000; human cells with a luciferase reporter of 2A StopGo recoding; control for the full effect not named in the record; AID 1159524; active = well fitted falling curve with a large enough effect; inconclusive = small, poorly fitted or top-dose-only effect; inactive = no such curve, though single readings can be large or run the other way; tested in HEK293T cells; further: on the % scale 0 is the no-effect control and ±100 the full control effect; nearly all actives have a fitted effect of over 45% in size; luciferase light after 4 h
Cruzain Triton – inhibitors of Trypanosoma cruzi cruzain with detergent; purified cruzain, Z-FR-AMC fluorescence, 0.01% Triton; Potency, µM, for the others: max response, negative = inhibition, hits mostly inhibitors; hit rate 0.43% among 200,000; AID 1478; active means well fitted curve in the direction sought with a large enough effect; inconclusive means small, poorly fitted or top-dose-only effect, or another doubt; inactive means no such curve, though single readings can be large; an effect the other way counts as inactive or inconclusive;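 further: plate controls were neutral wells for no effect and buffer without enzyme for full effect; nearly all actives have a fitted effect of over 40% in size; top concentration of the series not given in the record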
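15 min RT preincubation of 1.5 nM cruzain with compound, then 2 uM Z-FR-AMC added; kinetic AMC fluorescence, 60 s delta. Triton X-100 0.01%, pH 5.5.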
RE007 growth inh – less growth of the S. pombe RE007 Vpr strain. S. pombe RE007 Vpr strain, BacTiter-Glo ATP luminescence, 24 h; control for the full effect not named in the record. Potency, µM (highest dose often 92.2 µM), for the others: at the highest dose activity change, negative = less growth. hit rate 0.21% among 360,000; active = well fitted falling curve with a large enough effect; inconclusive = small, poorly fitted or top-dose-only effect; inactive = no such curve, though single readings can be large or run the other way;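 further: on the % scale 0 is the no-effect control and ±100 the full control effect; nearly all actives have a fitted effect of over 50% in size; the assay follows cell death caused by Vpr and the record does not say whether a fall means rescue or toxicity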
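Fission yeast RE007 carrying one integrated HIV-1 vpr copy, seeded at OD 0.01 in PMG+AL medium with 23 nL pinned compound. Grown 24 h at 30 degrees; viability read by BacTiter-Glo luminescence after 5 min.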
* hit, by the source's call; ? = inconclusive; · = no result given; & = joins results of further samples; [ ] = remark or other dose. Unless noted, the call rests on the fitted dose curve; in most records, active means well fitted rising curve with a large enough effect; inconclusive means small, poorly fitted or top-dose-only effect; inactive means no such curve, though single readings can be large or run the other way. Potency means the concentration at half of the fitted maximal effect.

SMILES	Lassa entry inh	NS1 inh	Marburg entry inh	SARS PLP yeast	Cruzain inh noDet	2A StopGo	Cruzain Triton	RE007 growth inh
O=C(CN(Cc1ccccc1)C(=O)CNS(=O)(=O)c1ccc(F)cc1)NCC1CCCO1 (stereo not drawn)	-3%	1%	1%[46.1 µM]	0%	·	20%	·	12%
O=C(CNCc1cccs1)Nc1ccc(S(=O)(=O)N2CCCCC2)cc1	25%[46.1 µM]	·	-29%[46.1 µM]	0%	·	19%	·	2%
O=C(Nc1ccc2c(c1)CCCN2C(=O)c1cccs1)c1ccccc1Cl	?	·	·	·	4%	-17%	-2.0%	·
Cc1n[nH]c(=O)c2c(NC(=O)CSc3nc4ccccc4c(=O)n3C(C)C)oc(C)c12	?	19%	?	-2%	·	-26%	·	4%
CCc1ccc(C2C(C(=O)Nc3ccccc3)=C(C)Nc3nc(SCC(=O)c4ccc(C)cc4)nn32)cc1 (stereo not drawn)	-21%[46.1 µM]	·	·	·	-1%	-7%	2.4%	·
CCOC(=O)c1ccc(NC(=O)c2ccccc2[N+](=O)[O-])cc1	?	-6%	15%	-21%	9%	10%	-2.6%	-7%
O=C(Nc1cccc(F)c1)c1ccc2snnc2c1	?	·	3%[46.1 µM]	·	7%	0%	-5.7%	·
COc1ccc(-c2csc(NC(=O)CSc3ncn[nH]3)n2)cc1OC	-8%	·	11%	6%	·	?	·	10%
O=c1c(Cc2ccc(F)cc2)c(O)ccn1Cc1ccc(F)cc1	0%	15%	-4%	0%	·	-5%	·	2%
CN(CC(=O)Nc1cccc(F)c1)C(=O)c1cccnc1Sc1ccc(Cl)cc1	2%	·	?	12%	·	-29%	·	-15%
CCc1nc2ccc(C(=O)NCc3ccc(OC)c(OC)c3)cc2nc1CC	-16%[46.1 µM]	·	·	·	?	-8%	0.4%	·
O=S(=O)(Nc1ccc2ccccc2n1)c1ccc2c(c1)CCO2	·	-5%	·	0%	·	113%[activator]	·	0%
Cc1ccc(S(=O)(=O)NCCC(=O)NCc2ccco2)cc1	?	1%	11%	9%	3%	10%	-0.5%	-3%
CC1=NN(c2ccccc2)C(=O)/C1=C/c1cccc(C)c1	-4%	4%	5%[46.1 µM]	0%	·	4%	·	-5%
CSc1ccccc1NC(=O)COC(=O)Cc1cccs1	10%	-6%	12%[46.1 µM]	-1%	·	-10%	·	17%
CCN1Cc2cc(OC)ccc2-c2ccccc2S1(=O)=O	?	·	·	?	·	-21%	·	-18%
O=c1oc2ccccc2cc1-c1nnc(Nc2ccc(Cl)cc2Cl)s1	?	·	·	·	4%	25%	0.7%	·
CCOc1ccc(N2CC(c3nc4ccccc4n3CCOc3ccccc3)CC2=O)cc1 (stereo not drawn)	5%[46.1 µM]	·	?	·	12%	-13%	-8.6%	·
CCN(CC#CCC1(O)c2ccccc2-c2ccccc21)C(C)C	-1%	1%	-27%[46.1 µM]	11%	-5%	0%	3.0%	-15%
COc1cccc(NC(=O)Cn2nc(Cc3cccnc3)c3ccccc3c2=O)c1	·	-8%	·	0%	-1%	-16%	-1.6%	8%
C/C(=N\N1CCN(Cc2ccc(C)cc2)CC1)c1ccco1	-2%	-2%	18%	3%	3%	-6%	-2.3%	-8%
CN(C)c1ccc(N=Nc2ccccc2C(=O)OCC(=O)Nc2ccccc2C(F)(F)F)cc1	6%[46.1 µM]	?	18%[46.1 µM]	-6%	-6%	-2%	-7.8%	-7%
CC1CCCCN1C(=O)COC(=O)c1ccc2ccccc2n1 (stereo not drawn)	10%	·	-2%	-5%	·	28%	·	1%
O=C(NCc1ccc(Cl)cc1)c1cc(-c2ccc(F)cc2)on1	0%[46.1 µM]	·	?	·	?	18%	-1.9%	·
S=C(NCc1cccs1)NCC1CCCO1 (stereo not drawn)	3%	·	4%[46.1 µM]	0%	·	51%[activator]	·	-5%
O=C(N/N=C/c1cccc(O)c1)c1ccccc1O	·	-1%	·	-1%	·	-17%	·	-10%
Clc1ccccc1CNc1nc2ccccc2c2nc(-c3cccnc3)nn12	·	·	-4%[46.1 µM]	·	-1%	9%	-0.6%	·
COc1ccc(NC(=S)NNc2ccc([N+](=O)[O-])cc2S(=O)(=O)Nc2ccc(C)cc2C)cc1	?	18%	?	12%	25µM*	-13%	-14%	-29%
O=C(Nc1ccc(O)cc1)c1cccc(S(=O)(=O)N2CCOCC2)c1	-6%[46.1 µM]	·	·	·	0%	21%	-0.5%	·
CCOC(=O)CNC(=O)Cn1cnc2ccc(S(=O)(=O)N3CCC(C)CC3)cc2c1=O	2%	-9%	7%[46.1 µM]	-3%	-14%	17%	4.0%	-9%
Cc1nc2sccn2c(=O)c1S(=O)(=O)NCC1CCN(Cc2ccccc2Cl)CC1	?	-3%	-26%[46.1 µM]	-1%	·	-16%	·	-5%
COc1ccccc1CN1C[C@@H]2C[C@@H](c3ccc(C)cc3)N3CCC[C@@]23C1=O	-2%	-4%	-17%[46.1 µM]	-1%	·	12%	·	-1%
Cc1nn(CC(=O)NCCN2CCOCC2)c(=O)c2cc3sccc3n12	·	18%	·	-1%	·	-12%	·	3%
Cc1ccc(S(=O)(=O)NCCSc2nnc(N)s2)cc1	23%	19%	7%	-7%	?	42%[activator]	-2.9%	-4%
COc1cccc(COC(=O)c2sc3nc4n(c(=O)c3c2C)CCC4)c1OC	13%	·	2%	0%	·	-6%	·	5%
Cc1cccc(NC(=O)CCn2ccnc2C)c1	12%	-7%	2%	2%	12%	28%	-1.3%	16%
NC(=O)/C(=C\c1ccccc1)NC(=O)c1ccc(NC(=O)c2ccccc2)cc1	·	1%	·	-1%	·	1%	·	-14%
COc1ccc(CCN(Cc2cc3cc(C)ccc3[nH]c2=O)C(=O)N2CCCC2)cc1OC	?	-7%	19%&19%	2%	3%	0%	-5.1%	-17%
CC1(OC(=O)C2CCCC2)C(=O)C=C2C=C(c3ccsc3)N(Cc3ccco3)C=C2C1=O (stereo not drawn)	·	3%	·	3%	·	-3%	·	-5%
N/N=C1\CCCc2nonc21	·	2%	·	0%	·	3%	·	5%
Cc1cccc(NC(=O)c2cccc(C(F)(F)F)c2)c1	·	-8%	·	-2%	·	33%[activator]	·	-19%
COC(CN(C(=O)CCl)C(C(=O)NC1CCCCC1)c1ccccc1C)OC (stereo not drawn)	?	-4%	?	-13%	-3%	?	1.6%	5%
CCOC(=O)Cc1csc(NC(=O)CN2C(=O)c3ccccc3S2(=O)=O)n1	4%	-2%	0%	3%	-10%	29%	0.0%	-4%
COC(=O)[C@H](CC(C)C)NC(=O)Nc1ccc(F)cc1	?	2%	23%[46.1 µM]	0%	·	1%	·	-8%
COc1ccc(C(=O)NC2CCN(C(=O)NCc3ccccc3)CC2)cc1	-20%[46.1 µM]	-13%	11%[46.1 µM]	0%	·	-2%	·	-1%
Cc1c(NC(=O)c2ccccc2N(C)S(=O)(=O)c2ccccc2)c(=O)n(-c2ccccc2)n1C	5%	1%	8%	10%	13%	10%	8.8%	1%
O=C(NC1CCCC1)C(c1cccs1)N(C(=O)c1ccco1)c1ccc2c(c1)OCO2 (stereo not drawn)	?	-9%	-13%	11%	5%	1%	-1.2%	-6%
CCc1ccc2c(c1)C(c1ccc([N+](=O)[O-])cc1)=NNC(c1ccccc1)=N2	15%	21%	7%	-11%	?	23%	-2.1%	-5%
COC(=O)c1ccc(C)c(NC(=O)Cc2coc3cc(OC)ccc23)c1	?	2%	-29%	2%	-4%	5%	-8.6%	4%
COc1ccc(N2Cc3cccc(C(=O)Nc4cc(C)cc(C)c4)c3C2=O)cc1	11%[46.1 µM]	·	6%[46.1 µM]	·	3%	-8%	-3.4%	·

(cont.)
SMILES	Lassa entry inh	NS1 inh	Marburg entry inh	SARS PLP yeast	Cruzain inh noDet	2A StopGo	Cruzain Triton	RE007 growth inh
CCOc1ccc(N(CC(=O)N2CCN(c3ccccc3F)CC2)S(=O)(=O)c2c(C)noc2C)cc1	·	6%	·	-1%	·	-6%	·	-10%
Nn1c(SCC(=O)Nc2c(F)cc(F)cc2Br)nnc1C1CCCCC1	·	-1%	·	8%	·	11%	·	16%
Cc1ccc(S(=O)(=O)c2nnn3c2nc(N(C)Cc2ccccc2)c2cc(Cl)ccc23)cc1C	·	·	-2%[46.1 µM]	·	10%	34%[activator]	0.8%	·
Cc1cc(C(C)(C)C)cc(C)c1CCNC(=O)c1ccc[n+]([O-])c1	3.2µM*	4%	0.63µM*	-1%	·	-11%	·	2%
COc1ccc(/C=C\c2onc(C)c2S(=O)(=O)N2CCC(C(=O)Nc3cccc(C)c3C)CC2)cc1	22%[46.1 µM]	·	?	·	-20%	-16%	-2.5%	·
COc1ccc(OCC(=O)Nc2ccc(NC(=O)c3ccco3)c(C)c2)cc1	?	-25%	?	-17%	·	6%	·	-4%
COc1cc2c(cc1OC)C(COc1ccc3c(C)cc(=O)oc3c1)N(C(=O)c1cc(Cl)ccc1OC)CC2 (stereo not drawn)	-26%[46.1 µM]	·	?	·	0%	0%	1.4%	·
COCCn1c(N2CCN(c3ccc(OC)cc3)CC2)nc2c1c(=O)[nH]c(=O)n2C	-8%	-7%	-2%	2%	-2%	-20%	-2.9%	12%
Cc1ccc(S(=O)(=O)Cc2ccc(C(=O)N3CCN(c4ccc(F)cc4)CC3)o2)cc1	·	-17%	3%	0%	20%	-2%	-6.4%	6%
CCOC(=O)N1CCN(C(=O)Nc2ccc3nc(-c4ccccn4)c(-c4ccccn4)nc3c2)CC1	15%	6%	-9%&-9%	3%	-1%	-15%	1.7%	11%
N/C(Cc1ccc(Cl)cc1Cl)=N\OC(=O)Cc1ccc(Cl)cc1	-2%	-80%	-3%	-82%	-15%	-2%	-0.4%	-26%
CC(=O)/C(=C\N(C)C)Sc1ccc(Cl)cc1	·	2%	·	0%	·	-12%	·	2%
Cc1cc(SCC(=O)OC(C)C(=O)N(C)c2ccccc2)nc2ccccc12 (stereo not drawn)	-37%	·	-10%	·	·	1%	·	2%
CCOc1ccc(CN2CCC(n3nccc3NC(=O)c3ccccc3OC)CC2)cc1	7%[46.1 µM]	-5%	-22%[46.1 µM]	0%	·	38%[activator]	·	-10%
Cc1ccc(NC(=O)Cn2cnc3c(cnn3C(C)(C)C)c2=O)cc1	1%	-8%	-7%	-6%	4%	-10%	-4.2%	-16%
